Source: PubChem BioAssay (National Center for Advancing Translational Sciences (NCATS))
D2 potentiator – potentiates the human D2 dopamine receptor allosterically; P14416; DiscoveRx D2 beta-arrestin cells, luminescence, 90 min; 100% = 57 uM dopamine signal; potentiation, % (no concentration beside the values); 360,000 tested, 0.23% active; AID 624464; active = potentiation of 50% or more; inconclusive = 30% to 50%; inactive = 30% or less;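 further: compound concentration not given in the record; tested on top of an EC20 dose of dopamine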
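D2 cells co-treated with compound plus 50 nM dopamine (EC20) for 90 min at 37 deg C to detect potentiation. Beta-arrestin recruitment was read as enzyme-fragment luminescence after 1 h at ambient temperature. Full response was set by 57 uM dopamine.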
Six1-Eya2 blk – inhibitors of human Six1/Eya2 interaction; AlphaScreen GST-Six1/His-Eya2 binding, biochemical; stronger effect = lower value; control for the full effect not named in the record; activity change, % (no concentration beside the values); Q15475+O00167; 360,000 tested, 0.56% active; in the data active = activity change below about -65%; inconclusive = about -30% to -65%; inactive = above about -30%; further: on the % scale 0 is the no-effect control and ±100 the full control effect; compound concentration not given in the record
Target sequence (O00167 whole entry, looked up): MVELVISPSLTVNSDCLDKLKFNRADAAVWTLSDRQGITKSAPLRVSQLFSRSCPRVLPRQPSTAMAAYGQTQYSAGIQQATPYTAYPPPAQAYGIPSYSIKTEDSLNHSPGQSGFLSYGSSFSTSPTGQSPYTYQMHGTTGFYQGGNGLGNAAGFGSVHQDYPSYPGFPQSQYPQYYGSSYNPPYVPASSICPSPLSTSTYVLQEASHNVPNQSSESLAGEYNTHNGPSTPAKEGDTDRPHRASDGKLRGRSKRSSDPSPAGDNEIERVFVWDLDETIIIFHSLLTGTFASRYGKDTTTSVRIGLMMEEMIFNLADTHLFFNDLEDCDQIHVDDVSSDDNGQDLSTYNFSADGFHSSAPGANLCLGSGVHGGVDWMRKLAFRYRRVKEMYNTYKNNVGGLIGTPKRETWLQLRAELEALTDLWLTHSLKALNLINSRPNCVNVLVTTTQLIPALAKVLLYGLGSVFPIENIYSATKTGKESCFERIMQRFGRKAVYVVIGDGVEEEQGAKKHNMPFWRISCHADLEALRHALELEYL
Target sequence (Q15475 whole entry, looked up): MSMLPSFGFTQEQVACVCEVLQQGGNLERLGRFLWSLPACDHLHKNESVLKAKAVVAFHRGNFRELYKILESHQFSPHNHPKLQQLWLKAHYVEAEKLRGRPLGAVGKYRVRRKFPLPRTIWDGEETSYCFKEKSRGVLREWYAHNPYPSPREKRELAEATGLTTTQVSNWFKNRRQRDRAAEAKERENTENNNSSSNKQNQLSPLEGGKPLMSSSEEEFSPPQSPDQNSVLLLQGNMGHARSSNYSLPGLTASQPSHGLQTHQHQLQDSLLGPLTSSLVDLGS
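Homogeneous AlphaScreen proximity assay pairing GST-Six1 with His-tagged Eya2 (added as 5X mix: 250 nM and 500 nM) in 50 mM Tris pH 8.0, 300 mM NaCl, 1 mM TCEP. Glutathione donor and nickel acceptor beads; 1 h, 37 °C, dark.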
TRPML1 blocker – human mucolipin-1 channel inhibition. TRPML1-inducible cells, Ca2+ dye fluorescence, FDSS; stronger effect = lower value; inhibition of EC80 agonist-evoked calcium signal. Q9GZU1. activity change, negative = inhibition, % (test concentration not listed). 390,000 tested, 0.02% active; in the data active means activity change below about -50%; inconclusive means about -30% to -50%; inactive means above about -30%;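 further: stimulus is agonist 54-4 at its EC80 concentration; on the % scale 0 is the no-effect control and ±100 the full control effect; compound concentration not given in the record; the text of the record puts the active cut at -80%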
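TRPML1-DL cells, Tet-induced overnight (~16 h, 37 °C) at 1,500 cells/well, were loaded with Ca8 no-wash dye plus quencher for 45-90 min at room temperature. Compounds were pinned during FDSS kinetic reading; agonist 54-4 at EC80 (4 uM final) then added.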
D2 ag – human D2 receptor agonism in beta-arrestin assay; P14416; DiscoveRx PathHunter D2 beta-arrestin, luminescence, 90 min; 100% = 57 uM dopamine signal; activation, % (concentration not given with the values); 360,000 tested, 0.084% active; AID 624465; in the data active = activation above about 40%; inconclusive = about 15% to 40%; inactive = below about 15%; further: compound concentration not given in the record; the text of the record calls up to 30% inactive
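DiscoveRx PathHunter D2 beta-arrestin cells (2,100/well) attached overnight, then compound-stimulated 90 min at 37 C in HBSS/10 mM HEPES/0.1% Tween-20 buffer; beta-galactosidase complementation read by luminescence after 1 h at ambient temperature. Dopamine 57 uM final (EC100) as control.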
PINK1 modulator – changes PINK1 expression; Potency, µM (series often up to 76.6 µM), without a hit: at the top dose activation (PINK1 increase), most hits filed as activators; PINK1 immunofluorescence, high-content cytometry, 24 h; 410,000 tested, 0.2% active; AID 624263; active = well fitted activation curve with a large enough effect; inconclusive = small, poorly fitted or top-dose-only effect; inactive = flat fitted curve, though single readings scatter; cell line not stated here;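 further: potency means the concentration at half of the fitted maximal effect; % of control where 0% means no effect; nearly all actives have a fitted effect of over 65% in size; a mitochondrial uncoupler was the plate control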
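A stable cell line was treated with compounds at 5 concentrations for 24 hours, with CCCP as control. PINK1 levels and mitochondrial localization were measured by immunofluorescence with mitochondrial, cell and nuclear markers after fixation, read by laser-scanning cytometry.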
TRPML1 ag – activates the human TRPML1 channel | AID 624414 | activation, % (test concentration not listed) | 410,000 tested, 0.12% active | TRPML1-expressing cells, Ca2+ dye fluorescence, FDSS; host cell line not named in the record; reference of the full effect not given here; in the data active = activation above about 50%; inconclusive = about 30% to 50%; inactive = below about 30%; further: 0% is about no effect; the text of the record puts the active cut at 80%
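Kinetic FDSS Ca2+ read in Tet-induced TRPML1-DL cells (ABD Ca8 dye plus quencher, 45-90 min RT loading): baseline, then compound, then 110 s agonist window; EC80 agonist 54-4 at 4uM final added afterwards for a 110 s antagonist window.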
The depositor's hits bear a star; ? = inconclusive; nt = no result given; & = joins results of further samples; [ ] = another dose, or the depositor's remark. No enrichment for hits; 1% or so of the library scored in one or more.

SMILES	D2 potentiator	Six1-Eya2 blk	TRPML1 blocker	D2 ag	PINK1 modulator	TRPML1 ag
Cc1ccc(C)c(NC(=O)CN2C(=O)NC(CCc3ccccc3)C2=O)c1 (stereo unspecified)	-6	-2	13	-5.8	19%	0.0
CSCCC(=O)Nc1ccc(C(C)=O)cc1	-16	2	29	-0.3	-0.3%[38.3 µM]	0.2
CC(C)c1ccc(NC(=O)CN2C(=O)NC(Cc3c[nH]c4ccccc34)C2=O)cc1 (stereo unspecified)	3	-5	-6	4.2	7.0%	1.0
CCOc1ccc(CN(C(=O)/C=C/c2ccco2)C2CCS(=O)(=O)C2)cc1 (stereo unspecified)	-9	-2	-14	0.6	-1.1%	0.7
COc1ccc(S(=O)(=O)Nc2cc([N+](=O)[O-])ccc2OC)cc1	-10	-6	12	-3.4	14%	-0.7
CCN(CC)C(=O)CSc1nnc([C@H](CCSC)NC(=O)OC(C)(C)C)o1	2	11	42	-1.0	4.8%	-0.6
Cc1c(C)n2c(SCC(=O)N3CCCC3)nnc2[nH]c1=O	-31	4	14	-3.3	-2.5%	0.9
Cc1cc(=O)[nH]c2nnc(SCCC(C)C)n12	nt	nt	14	nt	11%	0.2
CC(C)C(=O)Nc1ccc(NC(=O)c2ccco2)cn1	-1	-1	7	-3.4	3.6%	-0.5
O=C(Nc1ccccc1)Nc1ncc([N+](=O)[O-])s1	-8	-19	8	-9.2	?	1.0
O=C(COc1ccc([N+](=O)[O-])cc1)NC(C(=O)O)C(O)c1cccc([N+](=O)[O-])c1 (stereo unspecified)	21	4	-18	-2.8	3.2%	-0.3
COc1ccccc1CNC(=O)COC(=O)C1=COCCO1	2	1	29	-0.6	1.9%	0.3
O=C(NCCCN1CCCC1)c1ccc2c(Cl)c3c(nc2c1)CCCC3	-12	-5	-14	-6.5	-1.4%	-0.5
CC(C)C[C@H]1CN([C@@H](CC(C)C)CN2CCC[C@H]2CN2C(=O)C(=O)NC[C@@H]2Cc2ccc(O)cc2)C(=O)C(=O)N1CC1CCCCCC1	nt	-3	nt	nt	0.4%	-0.6
COc1ccc(N(CC(=O)N/N=C/c2ccccc2OC)S(=O)(=O)c2ccccc2)cc1	-3	4	-1	-1.0	-1.6%	-0.1
CC(C)N(Cc1ccccc1)C(=S)Nc1ccccc1F	-2	7	14	-2.4	-0.1%	0.3
Cc1nnc(SCC(=O)NNC(=O)c2ccco2)n1-c1ccccc1	-9	-7	22	1.5	1.4%	-1.1
NC(=S)Nc1cccc(Cl)c1	-5	24	16	-4.3	0.8%	3.0
CO/N=C\c1cc(C(=O)c2ccc(Cl)cc2Cl)cn1C	-8	-25	-4	-0.1	3.7%	0.3
O=C(Nc1ccc(F)cc1F)Nc1sccc1-c1nc2ccccc2s1	-21	16	9	-5.1	12%	-1.0
O=c1cc(CCl)nc(Cc2c(Cl)cccc2Cl)[nH]1	-6	-4	-8	-0.2	-1.3%	0.6
Cc1cccc(OCC(=O)N/N=C\C=C\c2ccc3c(c2)OCO3)c1C	2	7	-7	-3.3	-0.2%	-0.7
CCOC(=O)CC1C(=O)NCCN1S(=O)(=O)c1ccc(Cl)cc1Cl (stereo unspecified)	-4	1	-11	1.5	-1.4%	0.5
Cc1ccc(NC2=C(NCCO)C(=O)c3ccccc3C2=O)cc1	60*	?	-2	7.5	-0.4%	-0.3
CN(c1ccccc1)S(=O)(=O)c1ccc(C(=O)NCc2cccnc2)cc1	-4	0	-15	1.9	2.1%	0.6

Next compounds follow:
SMILES	D2 potentiator	Six1-Eya2 blk	TRPML1 blocker	D2 ag	PINK1 modulator	TRPML1 ag
O=C1CC(c2ccccc2F)c2c(c3ccccc3[nH]c2=O)O1 (stereo unspecified)	1	-2	10	-3.1	1.9%	-0.6
CCCSCCCNC(=O)c1ccc(C)c(NC(=O)c2nsc3ccccc23)c1	nt	nt	13	nt	5.8%	1.2
N#Cc1cc2c(nc1SCc1cccnc1)CCC2	-4	7	1	-1.9	-0.2%	0.0
N/C(=N\OC(=O)c1cccs1)C1(c2ccc(Cl)cc2Cl)CC1	7	18	1	3.8	1.1%	2.3
CCc1c(O)nc(SCc2ccc(F)cc2)[nH]c1=O	-6	3	-11	-0.3	0.1%	0.0
COC(=O)C1CCN(C(=O)c2sc3nc(-c4ccc(F)cc4)cn3c2C)CC1	-6	-1	14	0.9	6.0%[38.3 µM]	1.0
O=C(COC(=O)c1cccs1)NC1CCCC1	-6	5	18	-0.4	0.8%	-0.2
CC(C)(C)S(=O)(=O)c1cnc2c(-c3ccc(Cl)cc3)cnn2c1N	9	5	16	-1.9	10%	-0.6
CCc1ccc(C(=O)/C=C/NCc2ccc(F)cc2)cc1	-11	0	6	-1.8	4.5%	0.2
CS(=O)(=O)N(CCc1ccccc1)CC(N)=O	3	0	2	-5.5	0.4%	0.5
CCOc1cc(C2C3=C(CCCC3=O)N(CC(=O)O)C3=C2C(=O)CCC3)ccc1OC	2	2	-6	-3.3	4.2%	-0.3
C=CCNC(=S)N/N=C(\C)c1cccc(NC(C)=O)c1	-2	-1	0	2.3	0.1%	0.6
CCOC(=O)C1C(=O)NC(N2CCN(CC)CC2)=NC1c1ccccc1 (stereo unspecified)	-10	13	-17	-3.5	-0.4%	0.7
COc1cccc(OC)c1C(=O)OCC(=O)NCC(C)C	-4	3	-4	5.5	-0.5%	0.5
COc1ccc(C2C(C(C)=O)=C(C)Nc3ncnn32)cc1OC (stereo unspecified)	-3	-6	-11	-2.9	-1.2%	-0.3
CC(=O)Nc1ccc(S(=O)(=O)Nc2nc3ccccc3nc2Nc2ccc(C(=O)O)c(O)c2)cc1	2	?	5	5.6	1.6%	0.7
CCCNC(=O)c1cc2c(C(F)(F)F)nn(C)c2s1	5	1	-6	-2.5	-0.2%	-0.4
CC1(c2ccc(OC(F)F)cc2)NC(=O)N(CC(=O)Nc2cccc(F)c2)C1=O (stereo unspecified)	-4	1	-8	0.6	2.6%	?
Cc1sc2nc(CSCC(=O)Nc3cc(F)ccc3F)[nH]c(=O)c2c1C	-5	0	48	-6.2	-0.7%	-0.4
CC(C)(C)NC(=O)[C@@H]1C[C@@H]2CCCC[C@@H]2CN1C[C@@H](O)[C@H](Cc1ccccc1)NC(=O)[C@H](CC(N)=O)NC(=O)c1ccc2ccccc2n1	-5&-17	-7&-4	-12&0	-3.9&-4.3	0.7%&-0.3%	0.0&-0.7
COc1ccccc1NS(=O)(=O)c1ccc(C(=O)NCCCn2ccnc2)cc1	-2	11	-4	-3.4	0.1%	-0.4
COC(=O)c1ccccc1NC(=O)CSc1nnc(-c2ccc(OC)cc2)n1C	-2	0	32	-7.1	1.6%	-0.1
COc1cccc(-n2c(SCC(=O)Nc3cc(C)on3)nc3ccccc3c2=O)c1	3	-1	3	-3.7	6.5%[38.3 µM]	1.1
CN(C)c1ccc(/C=N/NC(=O)CN(c2cccc(Cl)c2)S(C)(=O)=O)cc1Br	-6	-16	28	-1.9	12%	0.3
OCCN(CCO)Cc1csc2ccccc12	-16	10	9	-4.5	0.8%	0.1

3 entries drawn at random from the list so far, as already listed:
SMILES	D2 potentiator	Six1-Eya2 blk	TRPML1 blocker	D2 ag	PINK1 modulator	TRPML1 ag
OCCN(CCO)Cc1csc2ccccc12	-16	10	9	-4.5	0.8%	0.1
CCOC(=O)C1C(=O)NC(N2CCN(CC)CC2)=NC1c1ccccc1 (stereo unspecified)	-10	13	-17	-3.5	-0.4%	0.7
CC(=O)Nc1ccc(S(=O)(=O)Nc2nc3ccccc3nc2Nc2ccc(C(=O)O)c(O)c2)cc1	2	?	5	5.6	1.6%	0.7

(listing goes on)
SMILES	D2 potentiator	Six1-Eya2 blk	TRPML1 blocker	D2 ag	PINK1 modulator	TRPML1 ag
Clc1ccc(-c2cnc(Oc3ccccc3)nc2)cc1	1	13	-14	-1.3	3.9%	-0.2
NC(=O)CC(NC(=O)Cc1cccc2ccccc12)c1ccc(N2CCN(c3ccccn3)CC2)c([N+](=O)[O-])c1 (stereo unspecified)	-17	-10	-6	-4.1	3.1%	-0.4
COc1ccc(OC)c(C2N(c3ccc(Cl)cc3)C(=O)C3CCCN32)c1 (stereo unspecified)	23	0	-12	-4.8	-0.5%	-0.2
CCOC(=O)C1CCCN(S(=O)(=O)c2cccc3nsnc23)C1 (stereo unspecified)	3	-2	-15	-3.2	2.0%	-1.1
COc1cc(/C=C/CN2CCC(CO)(CC3CCCCO3)CC2)ccc1O (stereo unspecified)	-17	-1	2	-7.1	-1.1%	-1.0
COc1ccc(C(=O)Nc2ccc(S(=O)(=O)Nc3onc(C)c3C)cc2)cc1	-23	-23	4	-0.1	1.0%	-0.5
COc1ccccc1CNC(=O)CC(c1ccc(C)cc1)N1Cc2ccccc2C1=O (stereo unspecified)	nt	nt	-9	nt	6.6%	2.0
Cc1cc(N=NC(=O)c2ccccc2)ccc1O	-1	4	18	9.8	0.4%	0.3
Cc1ccc(C)c(NC(=O)CCNS(=O)(=O)c2ccc3c(c2)CCCC(=O)N3)c1	nt	nt	-26	nt	-1.1%	0.7
Cc1ccc(NC(=O)c2cc(C)no2)cc1	-15	0	14	-1.5	-2.1%	2.0
Cc1csc(C(C)N(C)C(=O)CCc2nnc(CCc3ccccc3)o2)n1 (stereo unspecified)	-14	16	-8	-3.1	0.8%	-0.3
C[C@@H]1CN([C@@H](C)CO)C(=O)c2cc(NC(=O)Nc3ccc(F)cc3)ccc2O[C@@H]1CN(C)Cc1ccc(Oc2ccccc2)cc1	15	-24	-7	2.2	2.4%	-0.5
Cc1noc(NS(=O)(=O)c2ccc(NC(=O)c3cnc4n(c3=O)CCS4)cc2)c1C	4	-2	-1	-1.8	8.4%[38.3 µM]	0.0
Cc1[nH]n2c(=O)cc(C(C)C)nc2c1-c1ccccc1	-23	4	4	-2.1	0.6%	0.6
O=C(NC12CC3CC(CC(C3)C1)C2)c1ccc(-c2ccccc2Cl)o1	-12	-4	42	-3.8	5.3%	0.5
CCCC(=O)Nc1c2c(nn1-c1cccc(C)c1C)CS(=O)(=O)C2	-1	?	nt	-6.2	1.4%	nt
CCOC(=O)Cc1csc(NC(=O)CCc2ccc(S(=O)(=O)N3CCOCC3)cc2)n1	-4	2	-5	3.4	0.7%[38.3 µM]	-0.4
Cc1ccc(NC(=O)C2CCN(c3nc(C)cc(C)n3)CC2)cc1	-10	6	23	0.4	0.5%	-0.6
Cc1ccc(-n2c(CSc3nc(C)cc(C)n3)nnc2SCC(=O)N2CCCC2)cc1	-3	4	-12	-3.7	-1.1%	-0.3
Cc1cc2cc(CNC(=O)c3ccc4c(c3)OCO4)ccc2[nH]1	-7	-9	32	-2.9	-4.9%[38.3 µM]	0.0
CCCC/C(O)=C1\C(=O)CC(C)(C)CC1=NCCCCCC(=O)O	-4	-1	-23	-0.5	1.6%	-0.4
c1ccc(SCc2cc(-c3ccccc3)no2)cc1	0	51	49	-2.0	0.6%	1.7
CC(=O)Nc1ccc(-c2cc(-c3ccc(NC(C)=O)cc3)nc(-c3ccccc3)n2)cc1	4	4	-10	0.7	0.6%[38.3 µM]	0.8
